Cruzain noTriton – qHTS Assay for Promiscuous and Specific Inhibitors of Cruzain (without detergent); purified cruzain, Z-FR-AMC fluorescence, no detergent; Potency, µM, for the others: max response, negative = inhibition, actives largely listed as inhibitors; actives 2.3% (n = 200,000); Cruzipain (Trypanosoma cruzi), P25779; active = well fitted curve in the direction sought with a large enough effect; inconclusive = small, poorly fitted or top-dose-only effect, or another doubt; inactive = no such curve, though single readings can be large; an effect the other way counts as inactive or inconclusive;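 also: plate controls were enzyme without inhibitor for no effect and buffer without enzyme for full effect; nearly all actives have a fitted effect of over 40% in size; top concentration of the series not given in the record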
Target sequence (P25779 123-467 limits assumed): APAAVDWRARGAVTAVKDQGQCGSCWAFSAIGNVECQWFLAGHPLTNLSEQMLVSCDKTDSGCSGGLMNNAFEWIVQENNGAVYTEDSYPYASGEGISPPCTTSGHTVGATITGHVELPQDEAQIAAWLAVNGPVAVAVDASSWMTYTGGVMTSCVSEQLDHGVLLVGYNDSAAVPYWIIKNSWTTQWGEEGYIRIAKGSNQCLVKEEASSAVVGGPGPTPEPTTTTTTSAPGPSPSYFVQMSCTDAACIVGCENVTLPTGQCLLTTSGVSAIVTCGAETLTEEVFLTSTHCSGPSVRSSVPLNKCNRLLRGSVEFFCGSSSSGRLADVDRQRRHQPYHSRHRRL
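Purified cruzain at 1.5 nM, pre-incubated 15 min with compound at room temperature in 100 mM sodium acetate pH 5.5, 5 mM DTT, 0.00005% Triton X-100. Reaction started with 2 uM Z-FR-AMC; AMC fluorescence increase over 60 s gives rate.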
Lassa entry inh – qHTS for Inhibitors of binding or entry into cells for Lassa Virus | AID 540256, 2011 | actives 1.2% (n = 300,000) | Lassa virus pseudotype entry inhibition, cell reporter; control for the full effect not named in the record | Potency, µM (doses to about 37.9 µM), for inactives: top-dose activity change, negative = inhibition, most hits filed as inhibitors; active means well fitted inhibition curve with a large enough effect; inconclusive means small, poorly fitted or top-dose-only effect, or effect the other way; inactive means flat fitted curve, though single readings scatter; tested in HEK293 cells; also: % is scaled to controls: 0 for no effect and ±100 for the full control effect; nearly all actives have a fitted effect of over 50% in size; luciferase read-out
Marburg entry inh – qHTS for inhibitors of binding or entry into cells for Marburg Virus; Marburg virus pseudotyped entry inhibition, cell reporter; control for the full effect not named in the record; about a third of the inactives were read at about 46 µM; actives 1.8% (n = 300,000); Potency, µM (doses to about 37.8 µM), inactives show top-dose activity change, negative = inhibition, actives largely listed as inhibitors; AID 540276, 2011; active = well fitted inhibition curve with a large enough effect; inconclusive = small, poorly fitted or top-dose-only effect, or effect the other way; inactive = flat fitted curve, though single readings scatter; tested in HEK293 cells; about a fifth of its hits are not listed in these tables; also: % is scaled to controls: 0 for no effect and ±100 for the full control effect; luciferase read-out
SARS PLpro yeast – qHTS of Yeast-based Assay for SARS-CoV PLP | Potency, µM (titrated, usually from 32.9 µM), without a hit: at the top dose activity, positive = growth rescue | actives 0.19% (n = 330,000) | S. cerevisiae expressing SARS-CoV PLpro, growth rescue; control for the full effect not named in the record; also: 0% is about no effect; nearly all actives have a fitted effect of over 55% in size; growth read by luminescence after 48 h
NS1 function inh – qHTS Assay for Inhibitors of Influenza NS1 Protein Function. Potency, µM (doses to about 46.1 µM), without a hit: at the highest dose activity, positive = more growth. S. cerevisiae slowed by influenza A NS1, growth recovery by OD600. actives 0.4% (n = 270,000). AID 2326, 2010; also: actives are rising curves; nearly all actives have a fitted effect of over 50% in size
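Recovery from NS1-induced slow growth read by OD600 in budding yeast switched to galactose assay medium (pH 6.0, -URA) at 1:100 dilution. Compound 23 nl per well; the matching strain lacking NS1 serves as control.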
RE007 growth inh – qHTS Assay for Inhibitors of the HIV-1 protein Vpr. S. pombe RE007 Vpr strain, BacTiter-Glo ATP luminescence, 24 h; control for the full effect not named in the record. Potency, µM (titrated, usually from 92.2 µM), for inactives: at the highest dose activity change, negative = less growth. actives 0.21% (n = 360,000); active = well fitted falling curve with a large enough effect; inconclusive = small, poorly fitted or top-dose-only effect; inactive = no such curve, though single readings can be large or run the other way;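 also: % is scaled to controls: 0 for no effect and ±100 for the full control effect; nearly all actives have a fitted effect of over 50% in size; the assay follows cell death caused by Vpr and the record does not say whether a fall means rescue or toxicity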
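Fission yeast strain RE007, carrying one chromosomally integrated HIV-1 vpr copy, was seeded at OD 0.01 in PMG+AL medium with 23 nL pinned compound. After 24 h at 30 °C and 99% humidity, viability was read by BacTiter-Glo luminescence.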
2A StopGo – High Throughput Screening for Foot and Mouth Disease Virus Antivirals; human cells with a luciferase reporter of 2A StopGo recoding; control for the full effect not named in the record; Potency, µM (series often up to 57.9 µM), inactives show at the highest dose signal change, negative = less light; actives 1.2% (n = 410,000); AID 1159524, 2015; active = well fitted falling curve with a large enough effect; inconclusive = small, poorly fitted or top-dose-only effect; inactive = no such curve, though single readings can be large or run the other way; tested in HEK293T cells; also: % is scaled to controls: 0 for no effect and ±100 for the full control effect; nearly all actives have a fitted effect of over 45% in size; luciferase light after 4 h
Cruzain inh Det – qHTS Assay for Promiscuous and Specific Inhibitors of Cruzain (with detergent); Cruzipain (Trypanosoma cruzi), P25779; purified cruzain, Z-FR-AMC fluorescence, 0.01% Triton; actives 0.43% (n = 200,000); Potency, µM, inactives show max response, negative = inhibition, actives largely listed as inhibitors; active = well fitted curve in the direction sought with a large enough effect; inconclusive = small, poorly fitted or top-dose-only effect, or another doubt; inactive = no such curve, though single readings can be large; an effect the other way counts as inactive or inconclusive;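 also: plate controls were neutral wells for no effect and buffer without enzyme for full effect; nearly all actives have a fitted effect of over 40% in size; top concentration of the series not given in the record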
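Detergent-containing arm of a paired screen for aggregation-based inhibition: 0.01% Triton X-100 present. Cruzain at 1.5 nM cleaved 2 uM Z-FR-AMC at pH 5.5 with 5 mM DTT; AMC fluorescence gain over 60 s measured activity.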
* = called active by the depositor; ? = inconclusive; . = not tested or not shown; & = joins results of further samples; [ ] = dose if it differs, or a comment. Unless noted, calls follow the shape of the dose curve; as a rule, active means well fitted rising curve with a large enough effect; inconclusive means small, poorly fitted or top-dose-only effect; inactive means no such curve, though single readings can be large or run the other way. Potency is read from the fitted curve at half-maximal effect. Compounds were not picked by outcome; 4.5% or so of the library scored in one or more.

SMILES	Cruzain noTriton	Lassa entry inh	Marburg entry inh	SARS PLpro yeast	NS1 function inh	RE007 growth inh	2A StopGo	Cruzain inh Det
O=C(Cn1nc(C(=O)O)c2ccccc2c1=O)Nc1cc(Cl)cc(Cl)c1	.	1.8%	?	-5.9%	4.9%	0.0%	-24.1%	.
COc1cccc(C(=O)NCC(=O)N/N=C/c2ccc3c(c2)OCO3)c1	.	-9.7%[46.1 µM]	7.0%[46.1 µM]	-1.2%	2.3%	-5.0%	49.2%[activator]	.
COc1ccccc1Cn1nnc2c(=O)[nH]c(C3CCN(C(=O)c4ccc(C)cc4)CC3)nc21	?	-29.6%	-10.4%&-10.4%	-1.6%	-3.1%	8.3%	-29.6%	6.1%
O=S(=O)(NCc1cc(-c2ccccc2)no1)c1ccc(Cl)cc1	6.2%	0.0%	7.1%	0.3%	-8.4%	-1.2%	15.9%	-1.7%
COc1ccc(N(C(=O)c2ccc(C)cc2)S(=O)(=O)c2cccs2)cc1	?	?	-3.6%	-89.4%	-13.3%	-15.0%	8.7%	-2.9%
CCc1ccc(C(=O)c2cn(CC(=O)Nc3ccc(OC)cc3)c3cc4c(cc3c2=O)OCO4)cc1	-10.3%	14.2%[46.1 µM]	7.1%[46.1 µM]	.	.	.	-5.4%	-2.1%
O=[N+]([O-])c1ccc2nc(/C=C/c3ccc(Cl)cc3)[nH]c2c1	-5.9%	?	?	-28.8%	-110.5%	-25.8%	.	-0.8%
Cc1c(C(=O)Nc2ccc(Cl)cc2)c2ccccn2c1C(=O)c1ccc([N+](=O)[O-])cc1	?	9.9%	6.4%	6.4%	0.5%	-10.1%	-8.4%	-5.8%
C=CCn1c(-c2ccccc2OC)n[nH]c1=S	3.2%	5.7%	1.4%	2.4%	8.6%	3.4%	-6.9%	-3.4%
CC(C)C(NS(=O)(=O)c1cccc2nsnc12)C(=O)N1CCc2ccccc2C1 (configuration not stated)	-0.8%	-0.1%	-6.0%	1.0%	-8.4%	0.1%	2.7%	3.1%
O=C(NCc1ccco1)/C(=C/C=C/c1ccccc1)NC(=O)c1ccco1	.	.	.	-1.8%	-6.4%	3.7%	4.0%	.
CCCn1c(=O)c(C(=O)NCc2ccncc2)c(O)c2ccccc21	16.3%	-1.3%	0.0%	-3.2%	-60.6%	9.2%	-0.6%	-4.9%
Cc1sc2nc(SCC(=O)Nc3ccc(Cl)c(C(=O)O)c3)[nH]c(=O)c2c1C	.	?	12.6µM*	.	.	1.9%	-15.6%	.
COc1cc2c(cc1OC)C(C)N(C(=O)c1cc3c(s1)-c1c(C)cccc1OC3)CC2 (configuration not stated)	-7.9%	-20.4%	-3.0%	-37.6%	-24.5%	5.8%	-17.8%	-19.8%
COc1ccc(CCNC(=O)C2(C)CCC(=O)N2Cc2ccc3c(c2)OCO3)cc1OC (configuration not stated)	-14.1%	1.2%	-6.4%&-6.4%	-0.1%	-8.3%	-0.5%	-11.3%	0.9%
N#CC1=C(N)Nc2ncnn2C1c1ccc(F)cc1 (configuration not stated)	2.1%	1.7%	-14.8%	4.9%	-7.3%	40.6%	9.3%	-1.0%
c1ccc(OCCOc2ncnc3sccc23)cc1	-11.1%	12.3%	?	-3.6%	-9.4%	-3.0%	49.0%[activator]	7.4%
Cc1nc(-c2ccc(F)cc2)sc1CCNC(=O)c1ccc(OC(C)C)cc1	?	-14.7%[46.1 µM]	.	.	.	.	-16.8%	-8.9%
COc1ccccc1OCc1ccc(C(=O)NC(C)(C)C)o1	?	-3.9%	-8.3%	-6.1%	-11.9%	-8.0%	?	?
O=S(=O)(NC(=S)NC1CCCCC1)c1cccs1	.	-10.6%	-3.2%[46.1 µM]	-1.6%	.	-8.7%	-6.8%	.
CCc1noc(C)c1C(=O)NCCc1ccc(Cl)cc1	.	8.2%	-6.7%[46.1 µM]	-1.4%	.	22.7%	-7.9%	.
Cc1ccc(OCc2nc(-c3ccc(C(=O)N4CCN(c5cccc(C(F)(F)F)c5)CC4)cc3)oc2C)cc1	8.8%	.	-4.2%[46.1 µM]	.	.	.	-24.0%	-1.0%
CC(CCc1ccccc1)NC(=O)CNC(=O)c1cccs1 (configuration not stated)	.	1.0%[46.1 µM]	9.2%[46.1 µM]	-0.1%	20.0%	-10.6%	14.5%	.
CCC(=O)Nc1ccc2c(c1)C(=O)c1ccccc1C2=O	7.1%	?	?	-29.1%	-80.2%	-21.4%	56.5%[activator]	-7.0%
CCC(=O)Nc1cccc(NC(=S)NC(=O)c2ccc(C)cc2)c1	.	.	.	0.6%	6.8%	7.2%	29.2%	.

Arranged by molecular weight (ascending): part of the list above
SMILES	Cruzain noTriton	Lassa entry inh	Marburg entry inh	SARS PLpro yeast	NS1 function inh	RE007 growth inh	2A StopGo	Cruzain inh Det
C=CCn1c(-c2ccccc2OC)n[nH]c1=S	3.2%	5.7%	1.4%	2.4%	8.6%	3.4%	-6.9%	-3.4%
c1ccc(OCCOc2ncnc3sccc23)cc1	-11.1%	12.3%	?	-3.6%	-9.4%	-3.0%	49.0%[activator]	7.4%
O=S(=O)(NC(=S)NC1CCCCC1)c1cccs1	.	-10.6%	-3.2%[46.1 µM]	-1.6%	.	-8.7%	-6.8%	.
O=S(=O)(NCc1cc(-c2ccccc2)no1)c1ccc(Cl)cc1	6.2%	0.0%	7.1%	0.3%	-8.4%	-1.2%	15.9%	-1.7%

Other entries.
SMILES	Cruzain noTriton	Lassa entry inh	Marburg entry inh	SARS PLpro yeast	NS1 function inh	RE007 growth inh	2A StopGo	Cruzain inh Det
COc1ccc2cc3cc(C(=O)NCCN4CCc5ccccc5C4)oc3nc2c1	?	?	-16.8%	-14.3%	-43.0%	?	?	?
Cc1[nH]nc2nc(SCC(=O)NCC3CCCO3)n(-c3ccc(Br)cc3)c(=N)c12 (configuration not stated)	?	?	?	-2.0%	2.5%	27.2%	-18.0%	-5.5%
Cc1sc2ncn(CC(=O)N3CCC(C(N)=O)CC3)c(=O)c2c1S(=O)(=O)N1CCOCC1	.	-2.3%[46.1 µM]	-5.8%[46.1 µM]	-1.0%	9.7%	-21.7%	-7.7%	.
CC1(C)CC(NC2C3CC4CC(C3)CC2C4)CC(C)(C)N1 (configuration not stated)	.	?	?	0.1%	1.2%	-10.7%	-10.3%	.
CC(C)CC(=O)Nc1ccccc1N1CCN(C(=O)c2ccccc2)CC1	2.9%	-12.8%	8.1%[46.1 µM]	-0.3%	-0.9%	18.8%	-4.8%	-1.0%
O=C1C=C(N2CCCCC2)c2ccccc2C1=O	.	8.91µM*	?	.	.	-2.5%	22.4µM*	.
c1ccn2c(SCc3cn4ccsc4n3)nnc2c1	-7.7%	21.6%	9.0%	7.9%	-3.6%	0.2%	47.1%[activator]	4.1%
Cn1c(SCC(=O)NCc2ccc(F)cc2)nc2ccccc21	-4.4%	-14.6%	-16.9%	5.9%	-11.1%	0.6%	-2.6%	-4.9%
CC(=O)Nc1ccc2c(c1)C(=O)N(C1CCCCC1)C2=O	6.8%	11.1%	18.4%	-13.4%	-25.0%	-2.6%	10.6%	2.4%
O=C(Cc1ccccc1)Nc1ccc(C(=O)Nc2ccc(O)cc2)cc1	.	-0.7%	-4.8%	-3.0%	0.3%	17.5%	-0.5%	.
CCCOc1ccc(C(=O)Nc2cc3c(cc2N2CCCCC2)n(C)c(=O)n3C)cc1	-1.5%	1.3%[46.1 µM]	7.0%[46.1 µM]	.	.	.	-11.4%	0.0%
Cc1c(Cl)cccc1-c1ccc(CNc2ccc3[nH]c(=O)[nH]c3c2)o1	?	8.5%[46.1 µM]	-3.4%[46.1 µM]	.	.	.	-28.3%	-6.4%
O=C(O/N=C(/c1ccccc1)c1ccncc1)c1ccc(F)cc1	.	13.5%[46.1 µM]	6.0%[46.1 µM]	-9.3%	.	17.4%	-20.6%	.
COc1ccc(/C=N/NC(=O)CNC(=O)c2ccncc2)cc1OC	.	-2.6%[46.1 µM]	-0.7%[46.1 µM]	0.9%	4.3%	2.1%	6.6%	.
O=C(Nc1ccc2nc(SCC(=O)N3CCCc4ccccc43)sc2c1)c1ccc(F)cc1	?	?	?	.	.	.	-18.4%	-5.6%
COC(=O)c1ccc(CNC(=O)c2sccc2-c2ccccc2)cc1	.	?	?	.	.	10.2%	?	.
COc1ccc(NC(=O)c2ccc(-c3ccc([N+](=O)[O-])cc3)o2)cc1OC	?	?	?	-22.5%	4.3%	-7.1%	?	-11.7%
C=CCn1c(=O)c2ccccc2n2c(SCC(=O)N3CCCc4ccccc43)nnc12	0.8%	0.1%	-22.8%[46.1 µM]	4.3%	-12.2%	-0.1%	-8.4%	0.1%
Cc1nn(-c2ccc(N3CCCCC3)nn2)c(C)c1CCC(=O)Nc1ccc(F)cc1	.	.	.	0.3%	-13.5%	-1.2%	-2.8%	.
Cc1ccc(C(=O)Nc2cccc(-c3cnc4ccccc4n3)c2)cc1	7.0%	-13.2%	-6.4%	0.9%	3.9%	11.4%	.	4.5%
O=C1CSC2(C(=O)N3CCCc4cccc2c43)N1c1cccc(C(F)(F)F)c1 (configuration not stated)	5.3%	1.5%	2.9%	-6.5%	-52.6%	1.8%	-21.5%	-2.5%
O=S(=O)(NCc1ccccn1)c1ccc(F)cc1	29.2%	-0.6%	18.0%	1.0%	1.3%	7.1%	23.0%	2.0%
CC(=O)Oc1ccc(Cl)cc1/C=C/c1ccc2ccccc2n1	-7.2%	?	?	-94.9%	-24.4%	-26.8%	7.6%	-8.2%
O=C1N(c2cccc3ccccc23)C(c2ccccc2)N2CCCN12 (configuration not stated)	9.0%	?	4.1%	27.6%	12.6%	16.1%	-1.3%	-1.0%
